Screens as filed in PubChem.
KCNQ2 pot = potentiators of rat KCNQ2 potassium channel. CHO-K1 KCNQ2, FluxOR thallium flux fluorescence; stronger effect = higher value. 310,000 tested, 0.54% active. B-score at 10 µM. Potassium voltage-gated channel subfamily KQT member 2 (Rattus norvegicus), O88943;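 active = fluorescence ratio B-score at least 3 SD of library B-scores, with initial fluorescence B-score within 3 SD, cut at about 5.3 in these data; same plate scores as AID 2156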;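 note: B-score of peak minus minimum over baseline fluorescence ratio after K+ and Tl+ stimulus; positive B-score means potentiation of KCNQ2 with more thallium influx and brighter signal; only the inactives scoring about 0 or higher are listed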
Target sequence (O88943 whole entry, looked up): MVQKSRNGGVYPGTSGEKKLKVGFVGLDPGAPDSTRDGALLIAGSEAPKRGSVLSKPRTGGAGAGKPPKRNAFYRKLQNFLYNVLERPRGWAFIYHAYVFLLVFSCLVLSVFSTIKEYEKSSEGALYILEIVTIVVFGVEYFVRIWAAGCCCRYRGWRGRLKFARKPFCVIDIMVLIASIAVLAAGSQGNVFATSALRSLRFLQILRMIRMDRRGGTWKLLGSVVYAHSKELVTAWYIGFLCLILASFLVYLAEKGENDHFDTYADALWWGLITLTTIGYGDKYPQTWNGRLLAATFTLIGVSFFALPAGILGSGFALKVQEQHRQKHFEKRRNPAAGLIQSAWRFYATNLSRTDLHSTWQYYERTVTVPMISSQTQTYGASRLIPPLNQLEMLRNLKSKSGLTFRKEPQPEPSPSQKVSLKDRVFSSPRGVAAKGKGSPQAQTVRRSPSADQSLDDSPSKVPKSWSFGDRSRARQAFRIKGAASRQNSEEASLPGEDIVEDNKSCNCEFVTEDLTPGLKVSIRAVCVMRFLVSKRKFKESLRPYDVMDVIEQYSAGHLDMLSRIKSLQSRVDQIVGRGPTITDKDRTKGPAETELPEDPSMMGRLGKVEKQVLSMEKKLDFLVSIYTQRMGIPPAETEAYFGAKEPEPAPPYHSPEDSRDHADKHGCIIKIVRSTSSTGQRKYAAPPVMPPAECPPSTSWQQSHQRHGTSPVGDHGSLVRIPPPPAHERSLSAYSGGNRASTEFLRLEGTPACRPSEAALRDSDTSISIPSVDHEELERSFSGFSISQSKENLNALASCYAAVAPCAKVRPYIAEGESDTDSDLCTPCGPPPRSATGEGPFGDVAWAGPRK
KCNQ2 pot baseline = second read-out of KCNQ2 pot, no call of its own (marks repeat the call); B-score; compound at 10 µM; measured here: initial fluorescence intensity artifact check;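 brightness before thallium and not channel activity; 0 = typical well and far values either way flag optical interference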
Numbers without * were called inactive.

KCNQ2 pot,KCNQ2 pot baseline,molecule
0.49,0.81,C=CCN1C(=O)/C(=C2/Sc3ccccc3N2C)SC1=Nc1c(C)n[nH]c1C
0.05,0.39,CC1(CC(=O)NNC(=O)Nc2ccccc2)OCCCO1
0.37,-1.7,CCN1CCN(C(=O)C2CCC(=O)N(Cc3cccc(C(F)(F)F)c3)C2)CC1 (stereo not given)
1.8,2.4,CCCc1cc(C(N)=O)c(NC(=O)c2cc(C)on2)s1
0.27,-0.1,Fc1ccc(-c2nnc(SCc3cccnc3)o2)cc1
0.37,-1.6,CCc1cccc(NC(=O)C(NC(=O)C2CCCCC2)C(C)C)c1 (stereo not given)
0.29,0.4,CCCCOc1ccc(C(=O)CCN2CCCCC2)cc1
0.61,-1,COc1ccc(N(C(=O)CNC(=O)c2ccco2)C(C(=O)NCC2CCCO2)c2ccc(OC)c(OC)c2)cc1 (stereo not given)
0.48,1.3,COc1ccc(C2CC(=O)C(C=NCCO)=C(O)C2)cc1 (stereo not given)
0.22,-0.07,COC(=O)c1ccncc1N
1.3,0.57,CC(=O)c1cc2c(cc1NC(=O)CN1CCN(c3cccc(C(F)(F)F)c3)CC1)OCO2
0.3,0.46,CCOc1ccccc1NC(=O)CSc1nnc(-c2cnccn2)n1CC
0.37,-1.1,O=C(NCc1ccccc1)N(Cc1cc2cc3c(cc2[nH]c1=O)OCO3)CC1CCCO1 (stereo not given)
0.4,-0.24,O=S(=O)(NCC(c1ccco1)N1CCN(c2ccccc2F)CC1)c1ccc(F)cc1 (stereo not given)
0.08,0.44,COc1ccc(-c2cc(C(=O)Nc3cc(S(N)(=O)=O)ccc3C)c3ccccc3n2)cc1OC
1.4,-0.06,O=C(Nc1ccccc1Sc1ccccc1)c1ccc(F)cc1
3.9,1.3,CC(C)(C)c1nnc(N/N=C/c2ccccc2O)n(N)c1=O
1.4,0.01,O=C1CC(c2ccccc2)C(C(=O)O)N1 (stereo not given)
0.23,-0.98,COc1cc(NC(=O)c2ccccc2[N+](=O)[O-])c(C(=O)O)cc1OC
1.3,-0.92,COc1cc(NC(=S)NCC2CCCO2)c(OC)cc1Cl (stereo not given)
0.24,0.64,O=S(=O)(c1ccc2c(c1)OCCO2)N1CCc2ccccc21
0.12,0.75,O=C(Cn1ccc2ccccc2c1=O)NCC1COc2ccccc2O1 (stereo not given)
15*,1.2*,CCOC(=O)C(C(=O)OCC)C(C(=O)OCC)N1CCOCC1 (stereo not given)
0.73,-0.8,CCOc1ccccc1C(=O)N1CCCCC1C (stereo not given)
0.11,0.21,Cc1cccc(Cc2nnc(CCC(=O)NCc3cn4ccccc4n3)o2)c1
2.3,-1.3,Cc1ccc(-c2ccc(=O)n(CC(=O)NCCCN3CCCCC3C)n2)cc1 (stereo not given)
0.77,0.98,Cc1cccc(CSc2ccc3nnc(-c4cccnc4)n3n2)c1
0.06,-1.6,COc1ccc(N(CC(=O)Nc2c(C)n(C)n(-c3ccccc3)c2=O)S(=O)(=O)c2ccc(C)cc2)cc1
0.43,0.16,O=[N+]([O-])c1ccccc1CS(=O)(=O)c1ccccc1
0.01,-0.3,COc1ccccc1NS(=O)(=O)c1cccc(C(=O)OCC(=O)NC2CC2)c1

A second format for 4 compounds above.
structure: CCOc1ccccc1NC(=O)CSc1nnc(-c2cnccn2)n1CC
- KCNQ2 pot = 0.3
- KCNQ2 pot baseline = 0.46

structure: O=C(NCc1ccccc1)N(Cc1cc2cc3c(cc2[nH]c1=O)OCO3)CC1CCCO1 (stereo not given)
- KCNQ2 pot = 0.37
- KCNQ2 pot baseline = -1.1

structure: O=S(=O)(NCC(c1ccco1)N1CCN(c2ccccc2F)CC1)c1ccc(F)cc1 (stereo not given)
- KCNQ2 pot = 0.4
- KCNQ2 pot baseline = -0.24

structure: COc1ccc(-c2cc(C(=O)Nc3cc(S(N)(=O)=O)ccc3C)c3ccccc3n2)cc1OC
- KCNQ2 pot = 0.08
- KCNQ2 pot baseline = 0.44

Carrying on:
KCNQ2 pot,KCNQ2 pot baseline,molecule
0.68,-0.1,CCOc1ccc(N(CC(=O)N/N=C/c2cccnc2)S(C)(=O)=O)cc1
0.15,0.41,COc1ccc(OC)c(NC(=O)c2nc3ccccc3s2)c1
0.37,-0.01,Cc1ccc(C)c(/C(O)=C2/C(=O)C(=O)N(CCN3CCOCC3)C2c2ccc(C)o2)c1 (stereo not given)
0.15,-1,COc1cc2ccccc2cc1C(=O)N(CCN(C)C)c1nc2c(C)cccc2s1
5.1,-0.64,CCN1C(=NCCc2cccnc2)N[C@@H](c2ccccc2)[C@H](C(=O)OC)[C@H]1C
0.67,-1.7,Cc1nc(NC(=O)c2cnccn2)ccc1Br
1.8,-0.77,Cc1nn(C(C)C(=O)N2CCOCC2)c(=O)c2nn(-c3ccccc3)c(C)c12 (stereo not given)
1.7,-0.14,CCN(c1ccc(NC(=O)COC(=O)/C=C/c2cccs2)cc1)C(C)C
0.08,0.8,COc1cccc(C(=O)Nc2ccc3c(c2)OCO3)c1OC
0.14,0.02,Cc1cccc(N(CC(=O)N2CCCC2)S(C)(=O)=O)c1
0.85,-0.65,Cc1ccc(Cl)cc1NC(=O)c1ccc(NC(=O)CCC(=O)O)cc1
1.5,-0.34,CCOC(=O)CC1=NN(c2ccccc2)C(=O)/C1=C\c1ccc(N(C)C)cc1
0.04,-0.42,O=C(Nc1cccc(NC(=O)c2cccs2)c1)c1cccnc1
0.12,-1.8,Cn1c(SCc2cccc(F)c2)nnc1-c1ccncc1
0.04,1.1,COc1ccc(C(=O)NCc2csc(-c3cccs3)n2)cc1
0.05,-2,Cc1cc(O)cc(=O)n1Cc1ccco1
0.15,-1.1,CC(C)(C)OC(=O)NCCCCCc1nnc(SCC(N)=O)o1
0.73,-1.2,CCOc1ccc(-n2c(C)nc3cc(C(=O)NCCCN4CCOCC4)ccc32)cc1
0.84,0.08,COc1ccc(CCn2c(-n3nc(C)cc3C)nc3c2c(=O)[nH]c(=O)n3C)cc1
0.12,0.39,Cc1ccc(C(=O)NCc2ccc(N3CCN(C)CC3)cc2)cc1C
1.1,-1.2,CC(=O)c1ccc(NC(=O)c2cc3nc4c(c(C(F)(F)F)n3n2)CCCC4)cc1
0.2,0.52,Cn1cnc([N+](=O)[O-])c1SCC(O)CCl (stereo not given)
0.54,-1.7,CCn1c(=O)cc(SCC(=O)NCCCN2CCN(c3ccccc3F)CC2)c2ccccc21
1.5,0.02,CCC(C)(C)n1nnnc1C(c1ccccc1F)N1CCN(C(=O)c2ccco2)CC1 (stereo not given)
2.2,-0.18,Cc1ccc(/C(N)=N/OC(=O)CCC2CCCC2)cc1
0.69,0.18,Cc1ccc(C(=O)N2CCN(c3ccc(NC(=O)COc4ccccc4C)cc3)CC2)cc1
0.05,0.32,Cc1cc(C)c(C(=O)NCCCN2CCOCC2)c(C)c1
0.51,0.11,COc1ccccc1CNC(=O)c1cc(=O)c2ccccc2o1
1.4,-0.82,COCCn1nnnc1CN1CCN(C(=O)c2ccco2)CC1
0.58,-1.7,CCCC(=O)Nc1cc(-c2nn(C)c(=O)c3ccccc23)ccc1OC
0.75,-2.9,CCN1CCN(c2nc(Nc3ccc(NC(C)=O)cc3)nc(Nc3ccc(NC(C)=O)cc3)n2)CC1
1.6,0.32,Cc1n[nH]c(=O)nc1NCc1ccccc1
0.75,1.9,CCOC(=O)C(=CNc1ccc(C(F)(F)F)cc1)C(=O)OCC
0.01,1.2,O=C(O)CC(NC(=O)C1CCCCC1)c1ccc(OC2CCCC2)cc1 (stereo not given)
0.1,1.2,CC(C)(C)SCCNC(=O)c1ccccc1
1.2,0.5,CCOC(=O)c1csc(NC(=O)CC2CCCC2)n1
0.51,0.04,NC(=O)c1cc(S(=O)(=O)N2CCCCC2)cs1
0.18,0.48,CCCCCCCNc1cccc(C)c1
0.61,-0.28,CCCC1(C(=O)OCC)NC(c2cc(OC)c(OC)c(OC)c2)C2C(=O)N(CC)C(=O)C21 (stereo not given)
0.77,0.75,O=C(c1cccc(N2C(=O)c3ccccc3C2=O)c1)N1CCCCCC1
0.19,-0.16,Cc1cccnc1NC(=O)c1ccccc1NC(=O)C(C)(C)C
1.1,-0.36,Cc1cc(C)cc(NC(N)=S)c1
1.9,-1.5,COc1ccc(Nc2ccc3c(c2)=NC2(CCCCC2)[N+]=3[O-])cc1
2.1,-3.1,CC(C)(C)C(=O)Nc1ccc(-c2cn3ccsc3n2)cc1
0.12,0.96,O=c1[nH]c(/C=C/c2ccc(Br)cc2)nc2ccccc12
0.24,1.1,CC(C(=O)Nc1ccccc1Br)c1ccc([N+](=O)[O-])cc1 (stereo not given)
0.97,-0.75,COc1ccc(S(=O)(=O)N2CCCCC2)cc1NC(=O)c1ccc2c(c1)OCO2
0.61,-0.84,CCCn1c(SCc2cc(=O)[nH]c3ccccc23)nc2c1c(=O)n(C)c(=O)n2C
1.2,1.9,O=C(Nc1ccc2c(c1)OCO2)N1CCN(c2ccccc2)CC1
0.38,1.3,CCCS(=O)(=O)N1CCN(CC2CC=CCC2)CC1 (stereo not given)
1.1,-0.03,CN(CC(=O)Nc1ccccn1)S(=O)(=O)c1ccc(Cl)cc1
0.44,1.4,CCOC(=O)c1cnc2cc3c(cn2c1=O)CCCC3
0.28,-0.84,CCn1c(C)[n+](Cc2ccccc2)c2ccc(C(=O)OC)cc21
0.87,-0.12,CN(C)c1c([N+](=O)[O-])cc2[nH]c(=O)[nH]c2c1[N+](=O)[O-]
0.04,0.18,CCCCSC1(SCCCC)N=C(N)C2(C#N)C(c3ccccc3)NC(C)=C(C)C12C#N (stereo not given)
1.4,-0.6,O=C(N/N=C\c1cc2c(cc1Cl)OCO2)c1cccnc1
0.1,1.5,Cc1nc(N)c(C#N)c(-c2ccccc2)c1C
0.16,-0.49,CN1CCCN(C2C3CC4CC(C3)CC2C4)CC1 (stereo not given)
0.52,1.8,CCCCCCn1nc(C(=O)OCC(=O)c2c(N)n(C)c(=O)n(C)c2=O)c2ccccc2c1=O
0.97,-1.2,Cc1sc(NC(=O)c2ccco2)c(C(c2ccccc2)N2CCC(C)CC2)c1C (stereo not given)

Six of these compounds in another layout:
Values run as follows: KCNQ2 pot | KCNQ2 pot baseline
> CCC(C)(C)n1nnnc1C(c1ccccc1F)N1CCN(C(=O)c2ccco2)CC1 (stereo not given)
 : 1.5 | 0.02
> Cc1ccc(/C(N)=N/OC(=O)CCC2CCCC2)cc1
 : 2.2 | -0.18
> Cc1ccc(C(=O)N2CCN(c3ccc(NC(=O)COc4ccccc4C)cc3)CC2)cc1
 : 0.69 | 0.18
> Cc1cc(C)c(C(=O)NCCCN2CCOCC2)c(C)c1
 : 0.05 | 0.32
> COc1ccccc1CNC(=O)c1cc(=O)c2ccccc2o1
 : 0.51 | 0.11
> COCCn1nnnc1CN1CCN(C(=O)c2ccco2)CC1
 : 1.4 | -0.82

Continuation:
KCNQ2 pot,KCNQ2 pot baseline,molecule
2,0.02,O=C(NCCCN1CCN(c2cccc(Cl)c2)CC1)c1ccc(N2CCCC2=O)cc1
0.28,0.86,Cc1ccc(/C=C/S(=O)(=O)NCC(=O)OCC(=O)NCc2ccccc2)cc1
0.43,-0.85,COCCn1c(C)cc(/C=C2/SC(=O)N(C(C)C(=O)OC)C2=O)c1C (stereo not given)
1.5,-0.48,COc1ccc(C)cc1N/C(N)=N/c1nc(C)cc(C)n1
0.06,1.7,Cc1ccc(/C=N/NC(=O)CCCOc2ccc(Cl)cc2Cl)cc1
1.7,0.02,CCN1CCN(C(=O)C2CCC(CNS(=O)(=O)c3ccc(NC(C)=O)cc3)CC2)CC1 (stereo not given)
0.31,0.31,COc1ccc(O)c(C(=O)CC(=O)c2ccccc2)c1
0.12,-0.7,O=C(CCn1c(=S)[nH]c2ccccc2c1=O)Nc1cccc(Cl)c1
0.48,-0.8,Cc1ccc(CNC(=O)c2nn(C)c3c2CS(=O)(=O)c2ccccc2-3)cc1
0.35,-2.2,COc1ccc(C2=NOC3(CC(=O)N(c4ccc(F)cc4)C3=O)C2)cc1 (stereo not given)
0.31,0.6,CC(=O)N1CCc2cc(S(=O)(=O)N3CC(C)CC(C)C3)ccc21 (stereo not given)
0.66,-0.05,CSC[C@H](NC(=O)COc1cc2c(c3oc(=O)c(C)c(C)c13)CCC(C)(C)O2)C(=O)O
0.07,0.11,CN(C)CC(=O)Nc1cc(C(F)(F)F)ccc1Cl
0.01,0.73,Cc1ccccc1NC(=O)c1nn(C)c2c1CS(=O)(=O)c1ccccc1-2
0.73,1.1,CC(C)(C)[C@H]1C=C(C(N)=O)O[C@@H](OCc2ccc(CO)cc2)C1
1.6,0.03,CN(/C(=N\S(=O)(=O)c1ccccc1)c1ccccc1)c1ccc(O)cc1
0.59,0.05,Cc1cc([N+](=O)[O-])nn1CCCC(=O)Nc1cc(Oc2ccc(F)cc2)cc([N+](=O)[O-])c1
7.1*,-1.3*,COc1ccc(-c2csc(NC(=S)NC(=O)c3cccs3)n2)cc1Br
1,0.02,COc1cccc(NC(=O)Nc2ccc3nsnc3c2)c1
1.3,-0.02,O=C(CC1Oc2ccccc2NC1=O)NCc1ccccc1 (stereo not given)
0.01,0.01,O=C(COc1ccc(S(=O)(=O)N2CCOCC2)cc1)NCc1ccccc1
0.31,3.4,CCOC(=O)c1nnc(-c2ccc(C)cc2)nc1Sc1cccc(Cl)c1
1,-1.3,N#C/C=C(/c1ccc(F)cc1)N1CCOCC1
0.88,0.89,COc1ccc(C(c2oc(CO)cc(=O)c2O)c2oc(CO)cc(=O)c2O)cc1OC
1.7,1.2,CC1(C)Cc2c(sc3ncnc(N)c23)CO1
0.38,-1,CC(=O)Nc1ccc(S(=O)(=O)NNC(=O)CCc2ccccc2)cc1
1.4,0.36,Cc1sc2ncnc(NCC(c3ccco3)N3CCCC3)c2c1C (stereo not given)
0.38,0.7,COc1cccc(-c2ccc(SCc3ccccn3)nn2)c1
0.39,-0.41,C=CCNC1=C(Cl)C(=O)c2ccccc2C1=O

This is a subset, so the mix of outcomes need not match the whole.
